T cruzi inh – blocks replication of Trypanosoma cruzi. AID 1885. T. cruzi beta-gal in NIH3T3, luminescence, 90 h. hit rate 1.4% among 300,000. inhibition, % (no concentration beside the values);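 active means mean inhibition across valid replicates above about 55%, limit read from the data; inconclusive means mean below that limit but half or more replicates reach it; inactive means mean below it, under half of replicates reach it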;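 further: signal also drops with host cell toxicity which is not excluded here; 0% = plate median of DMSO wells and 100% = zero luminescence signal; higher percent means less beta-gal luminescence so fewer parasites; stock transfer was 50 nL into about 50 µL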
A1 inh – inhibitors of the anti-apoptotic protein A1, read as caspase activation. AID 2462. caspase activation, % (concentration not given with the values). MEF A1-2A-BIM cells, Caspase-Glo 3/7 luminescence, 3 h; percent of clofoctol response, vehicle zero. hit rate 0.066% among 330,000;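 active means over half of replicate activation scores above 10%, or exactly half above 10 with the replicate mean above 10; inconclusive means replicate mean below 10 yet half the replicates above 10; inactive means over half of replicates below 10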;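 further: wells of about 30 µL received 50 nL stock; many hits fall short of the cut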
UCH37 DUB inh – human UCH37 deubiquitinating enzyme inhibition; inhibition, % (no concentration beside the values); AID 588478; purified proteasome/UCH37, Ub-AMC cleavage fluorescence; hit rate 0.33% among 330,000;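 active means mean of two replicates above 20%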;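 further: 0% = compound-free wells with enzyme and 100% = wells lacking proteasome; stock transfer was 100 nL into about 20 µL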
Target sequence (Q9Y5K5 whole entry, looked up): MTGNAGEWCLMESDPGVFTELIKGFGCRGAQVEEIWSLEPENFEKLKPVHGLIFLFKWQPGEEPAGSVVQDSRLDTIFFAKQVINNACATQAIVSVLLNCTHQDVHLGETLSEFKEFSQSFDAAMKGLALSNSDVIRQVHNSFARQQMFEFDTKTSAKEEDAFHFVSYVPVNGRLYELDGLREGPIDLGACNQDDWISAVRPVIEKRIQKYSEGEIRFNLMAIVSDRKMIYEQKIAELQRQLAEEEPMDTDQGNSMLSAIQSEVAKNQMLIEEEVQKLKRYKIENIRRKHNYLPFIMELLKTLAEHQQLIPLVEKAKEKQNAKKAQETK
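System: Proteasome-associated human UCH37 deubiquitinase; Input: 0.15 nM proteasome in added enzyme buffer; Also added: Ub-AMC substrate from 1 µM stock; Incubation: 30 min compound-proteasome preincubation then 25 min substrate reaction, room temperature; Detection: fluorescence, ex 355 nm, em 460 nm; Read-out: % inhibition of Ub-AMC cleavage fluorescence; Benchmarks: no-proteasome and no-compound wells.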
FGF22 binding – FGF22 (human) thermal shift binding; calls only at 9.99 µM; hit rate 1.5% among 340,000; Q9HCT0; recombinant FGF22 thermal shift, SYPRO orange fluorescence; percent of sucrose octasulfate shift, DMSO zero;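 active means melting point raised past a set limit in the mean and every replicate; inconclusive means no clear call; three in four hits are not shown here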
rRNA inh HTS – inhibits bacterial ribosomal RNA function over humanized ribosomes; AID 720706; GFP signal change (wild-type ribosome), % (test concentration not listed); hit rate 1.6% among 350,000; E. coli WT GFP vs humanized-ribosome RFP mutants, fluorescence, 24 h; hits give low values; DMSO median 0, no signal -100;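 active means significant combined selectivity score with lowered wild-type GFP, culture density cut under 30%, mutant RFP and density less affected; inactive means any of these conditions unmet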; further: one replicate is shown; some compounds called inactive have numbers as strong as hits
E coli growth – inhibitors of Escherichia coli growth. OD600, 23 h; hits give low values. OD600 absorbance (test concentration not listed). hit rate 0.21% among 330,000. AID 1053175;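 active means OD600 absorbance below the run mean of sample wells minus 3.6 SD, in any replicate, cut at about 0.56 in these data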;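 further: stock transfer was 300 nL into about 60 µL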
AF4-AF9 inh – MLL-AF4/AF9 protein interaction inhibition; P42568; AlphaScreen, biotin-AF4 peptide binding to FLAG-AF9; inhibition, % at 10 µM; hit rate 0.47% among 350,000; AID 651704;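 active means every replicate reaching a set inhibition limit, whatever the replicate mean, cut at about 25% in these data; inconclusive means mean inhibition reaches that limit but some replicates miss it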;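 further: 0% = plate neutral control median and 100% = total signal loss; the record names both 10 and 1 µM as test concentration; the first replicate is given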
Target sequence (P42568 whole entry, looked up): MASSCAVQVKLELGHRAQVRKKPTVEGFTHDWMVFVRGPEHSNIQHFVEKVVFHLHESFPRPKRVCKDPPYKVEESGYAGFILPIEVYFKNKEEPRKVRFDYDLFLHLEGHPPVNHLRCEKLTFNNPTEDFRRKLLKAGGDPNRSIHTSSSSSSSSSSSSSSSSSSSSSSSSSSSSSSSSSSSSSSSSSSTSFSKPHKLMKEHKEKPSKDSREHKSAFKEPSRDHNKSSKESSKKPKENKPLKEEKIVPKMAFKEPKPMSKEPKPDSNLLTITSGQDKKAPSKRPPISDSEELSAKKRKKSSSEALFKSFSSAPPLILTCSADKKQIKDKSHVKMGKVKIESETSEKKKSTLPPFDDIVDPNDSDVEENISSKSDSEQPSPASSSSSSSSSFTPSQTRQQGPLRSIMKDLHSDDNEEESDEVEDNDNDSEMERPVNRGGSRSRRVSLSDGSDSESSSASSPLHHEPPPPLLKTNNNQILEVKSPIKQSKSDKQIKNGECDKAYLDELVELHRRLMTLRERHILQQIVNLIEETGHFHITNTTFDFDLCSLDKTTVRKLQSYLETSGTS
Beta apoptosis – beta cell apoptosis inhibition; INS-1E cytokine-induced death, ATP luminescence, 48 h; percent of positive-control rescue, neutral wells zero; hit rate 0.8% among 300,000; protection from apoptosis, % (concentration not given with the values);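 active means all replicates at 75% or more, or half of them and the mean; inconclusive means half reach 75% but not the mean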;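 further: 0% = cytokine-treated negative control wells and 100% = positive control rescue; higher means more ATP so stronger rescue from cytokine killing; wells of about 40 µL received 100 nL stock; the first replicate is given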
rRNA inh HTS OD600 – also measured in rRNA inh HTS; calls as there; OD600 change, %; measured here: OD600 growth;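 optical density of the mix in the first replicate; 0 = DMSO median and -100 = no signal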
rRNA inh HTS RFP – further read-out of rRNA inh HTS, marked with its call; RFP signal change, %; measured here: RFP humanized mutant strains;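 first replicate; 0 = DMSO median and -100 = no signal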
* marks the source's active call; other numbers are inactive results; i = inactive; ? = inconclusive; . = not tested or not shown; & = joins results of further samples. A portion of the library (hit frequency here may not be typical).

SMILES	T cruzi inh	A1 inh	UCH37 DUB inh	FGF22 binding	rRNA inh HTS	rRNA inh HTS OD600	rRNA inh HTS RFP	E coli growth	AF4-AF9 inh	Beta apoptosis
C/C(=C\C(=O)c1ccc(F)cc1)NCc1ccc2c(c1)OCO2	-2.3	0.9	1.0	.	.	.	.	.	.	1.6
COCCN1C(=O)c2ccccc2C(C(=O)NCCCN2CCCC2)C1c1c[nH]c2ccccc12 (centres undefined)	-4.0	-0.9	-0.1	.	.	.	.	0.765	.	-0.4
Cc1ccc(Nc2nc(-c3sc(NC(=O)c4ccccc4)nc3C)cs2)cc1	-5.0	-11.3	-9.6	i	0.7	3.4	15.1	0.7	-1.1	11.0
Cc1cc(C)c(S(=O)(=O)N2CCN(C)CC2)c(C)c1	3.5	-0.2	1.6	.	.	.	.	0.685	.	-6.7
Cc1ccc(C)c(OCc2cc(C(=O)N3CCN(c4ccccc4C)CC3C)no2)c1 (centres undefined)	10.2	0.0	3.4	i	-0.3	-4.4	-1.7	0.733	-0.3	-5.2
O=C(c1ccco1)N1CCN(S(=O)(=O)c2ccc3c(c2)CCN3C(=O)C2CCC2)CC1	2.6	0.3	2.0	.	.	.	.	0.71	.	3.3
CN(C)CCCn1c2c(c(SCC(=O)Nc3cccc4ccccc34)nc1=O)CCC2	57.1*	-0.7	-1.2	i	0.6	9.0	2.1	0.636	-8.8	-10.5
C(=N\Nc1nc(N2CCCC2)nc(N2CCCC2)n1)/c1cccnc1	-6.8	-0.1	.	i	10.9	16.6	2.0	.	0.1	-1.9
CCCCOCCCNC(=O)c1c(-c2ccccc2)noc1C	4.7	1.4	-6.8	.	.	.	.	0.726	.	2.6
COc1cccc(C(=O)NC2CC(C)(C)Cc3c2cnn3-c2cccc(F)c2)c1OC (centres undefined)	1.2	-1.1	1.0	i	-6.8	-10.6	1.6	0.713	1.8	.
COc1ccc(NC(=S)Nc2cc(C)ccn2)c(OC)c1	-6.1	-1.2	1.0	.	3.1	8.9	-3.1	0.716	.	8.5
Cc1ccc(S(=O)(=O)N(C)C[C@H]2Oc3ccc(NC(=O)C4CCCCC4)cc3C(=O)N([C@H](C)CO)C[C@H]2C)cc1	.	0.4	-0.1	i	-0.2&-9.1	-11.1&-21.5	-0.7&2.3	0.761	-0.5&-2.9	3.4
CC(=O)Nc1cccc(NS(=O)(=O)c2cn(C)c(=O)n(C)c2=O)c1	-2.5	-0.1	1.8	i	-1.2	3.6	-1.7	0.781	-0.2	-3.3
O=C(CSc1ccc(-c2ccc(F)cc2)nn1)NC1CCCCC1	-9.7	-1.2	2.0	i	3.9	8.3	0.4	0.704	-0.5	2.1
CC(C)(C)CC(C)(C)NC(=S)Nc1ccc2nc(-c3ccccn3)c(-c3ccccn3)nc2c1	22.7	-0.3	-22.1	.	.	.	.	0.7	.	17.8
O=C(NNC(=O)c1ccccc1-n1cccc1)c1ccc(Cl)nc1	.	0.4	0.3	i	16.4	10.4	0.6	0.668	0.3	-1.9
CCCCN(C(=O)c1ccc(NC(=O)C(C)C)cc1)c1ccccc1	1.7	0.4	5.0	.	.	.	.	0.694	.	-3.3
O=C(NC(Cc1ccccc1)C(=O)O)/C(=C\c1ccco1)NC(=O)c1ccc(Br)cc1 (centres undefined)	-13.7	1.5	4.8	.	.	.	.	0.716	.	-3.7
CC(=O)Nc1ccc(CC(=O)NCCC(c2ccccc2)c2ccccc2)cc1	-2.5	1.4	0.7	i	-7.3	-4.2	9.3	0.686	0.2	16.6
CCOC(=O)C1CCN(C(=O)c2ccccc2N(C)S(=O)(=O)c2ccccc2)CC1	-0.8	-0.1	-1.7	.	.	.	.	0.716	.	-5.1

Reformatted: results already given.
smiles | T cruzi inh | A1 inh | UCH37 DUB inh | FGF22 binding | rRNA inh HTS | rRNA inh HTS OD600 | rRNA inh HTS RFP | E coli growth | AF4-AF9 inh | Beta apoptosis
C/C(=C\C(=O)c1ccc(F)cc1)NCc1ccc2c(c1)OCO2 | -2.3 | 0.9 | 1.0 | . | . | . | . | . | . | 1.6
COCCN1C(=O)c2ccccc2C(C(=O)NCCCN2CCCC2)C1c1c[nH]c2ccccc12 (centres undefined) | -4.0 | -0.9 | -0.1 | . | . | . | . | 0.765 | . | -0.4
Cc1ccc(Nc2nc(-c3sc(NC(=O)c4ccccc4)nc3C)cs2)cc1 | -5.0 | -11.3 | -9.6 | i | 0.7 | 3.4 | 15.1 | 0.7 | -1.1 | 11.0
Cc1cc(C)c(S(=O)(=O)N2CCN(C)CC2)c(C)c1 | 3.5 | -0.2 | 1.6 | . | . | . | . | 0.685 | . | -6.7
Cc1ccc(C)c(OCc2cc(C(=O)N3CCN(c4ccccc4C)CC3C)no2)c1 (centres undefined) | 10.2 | 0.0 | 3.4 | i | -0.3 | -4.4 | -1.7 | 0.733 | -0.3 | -5.2
O=C(c1ccco1)N1CCN(S(=O)(=O)c2ccc3c(c2)CCN3C(=O)C2CCC2)CC1 | 2.6 | 0.3 | 2.0 | . | . | . | . | 0.71 | . | 3.3
CN(C)CCCn1c2c(c(SCC(=O)Nc3cccc4ccccc34)nc1=O)CCC2 | 57.1* | -0.7 | -1.2 | i | 0.6 | 9.0 | 2.1 | 0.636 | -8.8 | -10.5
C(=N\Nc1nc(N2CCCC2)nc(N2CCCC2)n1)/c1cccnc1 | -6.8 | -0.1 | . | i | 10.9 | 16.6 | 2.0 | . | 0.1 | -1.9
CCCCOCCCNC(=O)c1c(-c2ccccc2)noc1C | 4.7 | 1.4 | -6.8 | . | . | . | . | 0.726 | . | 2.6
COc1cccc(C(=O)NC2CC(C)(C)Cc3c2cnn3-c2cccc(F)c2)c1OC (centres undefined) | 1.2 | -1.1 | 1.0 | i | -6.8 | -10.6 | 1.6 | 0.713 | 1.8 | .

Continuation.
SMILES	T cruzi inh	A1 inh	UCH37 DUB inh	FGF22 binding	rRNA inh HTS	rRNA inh HTS OD600	rRNA inh HTS RFP	E coli growth	AF4-AF9 inh	Beta apoptosis
Cc1ccc(OCc2cc(C(=O)N3CCC(c4ccccc4Cl)C3)no2)cc1C (centres undefined)	-0.5	-0.7	-2.7	i	3.3	8.4	5.4	0.72	-1.4	0.3
COc1cc(C2c3sc(=O)[nH]c3SC3C(=O)N(c4ccc(C)cc4)C(=O)C32)ccc1O (centres undefined)	-1.4	1.0	.	i	7.6	1.8	13.2	.	2.6	-6.9
COc1ccc(-n2ncc3c(=O)n(CC(=O)N(C(C)C)C(C)C)cnc32)cc1	1.6	1.9	.	i	3.1	9.2	0.1	.	6.1	-3.4
Cn1c(C(=O)N/N=C/c2ccccc2)cc2ccccc21	-9.7	?	.	i	-1.1	2.8	-1.2	.	1.7	-3.2
O=C(c1ccc(Cl)cc1)N1CCCOC1	-15.2	0.1	0.6	.	.	.	.	0.677	.	-2.8
N#CCc1ccc(NC(=O)c2ccccc2C(=O)Nc2ccc(CC#N)cc2)cc1	-3.0	-0.4	1.3	i	1.9	10.9	1.9	0.693	-2.2	-9.5
CCOc1ccc(OCC)c(S(=O)(=O)n2cc(C)nc2CC)c1	5.0	-0.6	-2.0	i	-1.3	-12.2	-8.3	0.714	-5.2	9.9
C=CCn1c(SC2CCOC2=O)nc2scc(C3CC3)c2c1=O (centres undefined)	-6.6	0.6	4.7	.	.	.	.	0.724	.	1.5
Cc1ccc2c(C)c(C(=O)N(C)CCC3CCCCO3)oc2c1C (centres undefined)	23.0	-0.6	.	i	-8.8	-32.1	1.9	.	-7.4	-2.4
Cc1ccc(Nc2nc(-c3ccc(C)cc3)c(CC(=O)O)s2)cc1	15.3	0.3	1.0	i	1.8	-13.4	-0.6	0.703	4.1	-16.0
O=C(NNc1ccc([N+](=O)[O-])cc1[N+](=O)[O-])C1C2CCCCC21 (centres undefined)	-7.7	0.6	2.5	i	5.2	1.5	-1.4	0.727	2.4	2.7
CCOc1ccc(C(C)NC(=O)C2CCC2)cc1 (centres undefined)	-13.8	-1.2	2.6	i	4.1	3.3	-7.3	0.709	-2.0	-3.1
CC(=O)/C=C/c1ccccc1Oc1c(F)c(F)nc(F)c1F	-31.5	0.3	2.0	i	-29.0	-27.2	1.0	0.68	0.0	-9.2
COc1ccccc1-c1nnc2n1N=C(c1ccc(OC(F)F)c(OCC3CC3)c1)CS2	.	-2.2	2.8	i	9.9	5.6	-0.6	0.689	1.6	14.1
O=C(Nc1cccc(S(=O)(=O)N2CCCCC2)c1)c1ccc2ncsc2c1	-10.3	-1.3	2.3	i	-27.6	-18.9	23.8	0.7	-66.3	-3.3
COc1cc(C2C(C(N)=O)=C(C)Nc3nc(CCCO)nn32)cc(OC)c1OC (centres undefined)	-12.9	-0.5	0.0	i	4.3	11.4	-0.9	0.705	-2.9	-3.2
C=CCn1c(SCc2ccc([N+](=O)[O-])cc2)nnc1C(C)NC(=O)c1ccccc1 (centres undefined)	14.4	-0.5	4.3	.	.	.	.	0.739	.	-0.4
COc1ccc(N(C(=O)c2snc(C(N)=O)c2N)C(C(=O)NCC2CCCO2)c2ccc(C)o2)cc1OC (centres undefined)	17.0	0.4	-2.4	i	-0.8	1.6	-0.1	0.71	2.3	-3.2
Cc1ccc(C(=O)Nc2cc(Cl)ccc2-n2cncn2)s1	-2.6	-0.6	0.9	i	1.0	8.3	1.0	0.712	-0.8	1.6
COC(=O)c1cccc(NC(=O)CSc2nnc(C)o2)c1	-0.2	-0.5	3.6	i	10.0	6.3	0.3	0.701	-11.5	-3.4
O=C(CSc1ccc2ccccc2c1)Nn1cnnc1	-10.6	-0.7	2.3	.	.	.	.	0.748	.	-7.7
c1ccc(-c2noc(CSc3nc4ccccc4o3)n2)cc1	-14.7	-1.5	2.8	.	.	.	.	0.646	.	-3.8
Cc1ccc(S(=O)(=O)NC(=S)c2ccccc2)cc1	-14.6	0.1	0.9	i	14.3	0.6	-4.3	0.685	0.9	-9.1
CCOc1ccc(NC(=O)CSc2nncc(=O)[nH]2)cc1	-1.0	0.1	1.0	i	0.0	-6.0	-5.2	0.691	0.3	-1.4
Cn1c(C(=O)OCC(=O)NCC2CCCO2)cc2sccc21 (centres undefined)	7.1	0.3	-1.2	.	.	.	.	0.636	.	-4.7
COc1ccc(S(=O)(=O)N2CCOCC2)cc1NS(=O)(=O)/C=C/c1ccccc1	-3.8	0.6	1.0	i	19.1	5.3	0.0	0.679	-0.1	3.0

Compound activity (PubChem)
